# SARS PLP yeast – inhibitors of SARS-CoV papain-like protease in yeast; 330,000 compounds, 0.19% hits; S. cerevisiae expressing SARS-CoV PLpro, growth rescue; control for the full effect not named in the record; Potency, µM (highest dose often 32.9 µM), for the others: at the top dose activity, positive = growth rescue; active means well fitted rising curve with a large enough effect; inconclusive means small, poorly fitted or top-dose-only effect; inactive means no such curve, though single readings can be large or run the other way; note: 0% is about no effect; nearly all actives have a fitted effect of over 55% in size; growth read by luminescence after 48 h
# RE007 growth inh – less growth of the S. pombe RE007 Vpr strain. S. pombe RE007 Vpr strain, BacTiter-Glo ATP luminescence, 24 h; control for the full effect not named in the record. Potency, µM (highest dose often 92.2 µM), for inactives: at the top dose activity change, negative = less growth. 360,000 compounds, 0.21% hits. AID 651644; active = well fitted falling curve with a large enough effect; inconclusive = small, poorly fitted or top-dose-only effect; inactive = no such curve, though single readings can be large or run the other way;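 note: % is set by controls: 0 for no effect and ±100 for the full control effect; nearly all actives have a fitted effect of over 50% in size; the assay follows cell death caused by Vpr and the record does not say whether a fall means rescue or toxicity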
#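 Fission yeast strain RE007, carrying one chromosomally integrated HIV-1 vpr copy, was seeded at OD 0.01 in PMG+AL medium with 23 nL pinned compound. After 24 h at 30 °C and 99% humidity, viability was read by BacTiter-Glo luminescence.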
# StopGo reporter – lowers the luciferase signal of an FMDV 2A StopGo reporter | human cells with a luciferase reporter of 2A StopGo recoding; control for the full effect not named in the record | Potency, µM (titrated, usually from 57.9 µM), for inactives: top-dose signal change, negative = less light | 410,000 compounds, 1.2% hits | AID 1159524; active = well fitted falling curve with a large enough effect; inconclusive = small, poorly fitted or top-dose-only effect; inactive = no such curve, though single readings can be large or run the other way; tested in HEK293T cells; note: % is set by controls: 0 for no effect and ±100 for the full control effect; nearly all actives have a fitted effect of over 45% in size; luciferase light after 4 h
# * marks the source's active call; other numbers are inactive results; ? = inconclusive; & = joins results of further samples; [ ] = another dose, or the depositor's remark. Potency is the fitted concentration of half-maximal effect.
mol | SARS PLP yeast | RE007 growth inh | StopGo reporter
CCCCn1c(N)c(N(CC)C(=O)c2ccncc2)c(=O)[nH]c1=O | -2% | -7% | -19%
Cc1cc(OCC(=O)Nc2ccccc2N2CCOCC2)c(C(C)C)cc1Cl | -5% | -16% | ?
CC(C)(C)NC(=O)NC(=O)COC(=O)C1CCN(S(=O)(=O)c2cccs2)CC1 | 0%[6.58 µM] | -4% | 0%
Cc1cc2c(cc1C)C(c1ccsc1)CC(=O)N2 (stereo not drawn) | 1% | -24% | -3%
CC(O)CSc1nc2c(c(=O)[nH]c(=O)n2C)n1CC(O)COc1ccccc1 (stereo not drawn) | 0% | 6% | -13%
Cc1cnc(C(=O)OCC(=O)Nc2ccc(Br)c(C)c2)cn1 | -8% | 2% | 6%
COC(=O)c1c(-c2ccccc2Cl)noc1/C=C/N(C)C | 1% | 18% | -2%
COc1ccccc1NC(=O)C(C)OC(=O)CCNS(=O)(=O)c1cccc(C(F)(F)F)c1 (stereo not drawn) | 0% | -2% | 18%
COc1cccc(C2=CC(=O)C[C@H](c3ccc4c(c3)OCO4)C2)c1OC | -5% | -16% | 54%[activator]
O=C(N/N=C/c1oc(O)c2ccccc12)c1ccccc1O | 8% | 32% | 13%
COc1ccc(C(CNC(=O)C(C)Oc2ccc(Br)cc2)N2CCCCC2)cc1 (stereo not drawn) | 0% | -1% | -14%
CCc1ccc(C(=O)OCC(=O)N2CCCCCC2)cc1 | -1% | -15% | 37%[activator]
O=C(Nc1nnc(C2CC2)s1)c1cncc(Br)c1 | 0% | -5% | 57%
C/C(=N/NC(=O)c1ccc2c(c1)OCO2)c1ccc(Br)s1 | -3% | -13% | 38%[activator]
COc1cc(C(=O)Nc2cc(S(C)(=O)=O)ccc2Cl)ccc1OCC(=O)N1CCOCC1 | -5% | 12% | -21%
C[C@H]1O[C@H](O[C@H]2[C@H](O[C@@H]3CC[C@@]4(C)C(CC[C@]5(C)C4CC=C4[C@@H]6CC(C)(C)CC[C@]6(C(=O)O[C@@H]6O[C@H](CO)[C@@H](O)[C@H](O)[C@H]6O)CC[C@]45C)C3(C)C)O[C@H](C(=O)O)[C@@H](O)[C@@H]2O)[C@@H](O)[C@@H](O)[C@@H]1O (stereo partly drawn) | -8% | -7% | 0%
CC(OC(=O)c1ccc2ncsc2c1)C(=O)Nc1cccc(Cl)c1 (stereo not drawn) | 1% | -10% | ?
C[C@H](CO)N1C[C@H](C)[C@@H](CN(C)Cc2ccc(-c3ccccc3)cc2)Oc2c(NS(=O)(=O)c3ccc(F)cc3)cccc2C1=O | -1% | -1% | -15%
Cc1sc2nc(C)n(/N=C/c3ccc(O)cc3O)c(=O)c2c1C | -1% | 5% | -23%
COc1ccc(NC(=O)CCN2C(=O)NC3(CCCC3)C2=O)cc1Cl | 5% | -10% | -14%

# Pulled by compound from the list above (five):
mol | SARS PLP yeast | RE007 growth inh | StopGo reporter
COc1ccc(C(CNC(=O)C(C)Oc2ccc(Br)cc2)N2CCCCC2)cc1 (stereo not drawn) | 0% | -1% | -14%
CC(OC(=O)c1ccc2ncsc2c1)C(=O)Nc1cccc(Cl)c1 (stereo not drawn) | 1% | -10% | ?
C/C(=N/NC(=O)c1ccc2c(c1)OCO2)c1ccc(Br)s1 | -3% | -13% | 38%[activator]
CC(O)CSc1nc2c(c(=O)[nH]c(=O)n2C)n1CC(O)COc1ccccc1 (stereo not drawn) | 0% | 6% | -13%
CC(C)(C)NC(=O)NC(=O)COC(=O)C1CCN(S(=O)(=O)c2cccs2)CC1 | 0%[6.58 µM] | -4% | 0%

# Carrying on.
mol | SARS PLP yeast | RE007 growth inh | StopGo reporter
Cc1cc(C(=O)Nc2cccc3c2O[C@@H](CN(C)S(C)(=O)=O)[C@H](C)CN([C@@H](C)CO)C3=O)n(C)n1 | 24% | -1% | -15%
CN(C)S(=O)(=O)n1cnc([C@H]2c3c(ncn3Cc3ccccc3)C[C@H]3COC(=O)[C@@H]32)c1 | -3% | -10% | -4%
O=C(N/N=C/c1ccsc1)C1CC1 | 0% | 6% | 6%
CCOC(=O)NN1C(=O)c2ccccc2NC1c1ccccn1 (stereo not drawn) | 1% | -7% | -13%
Cn1cccc1/C=C1\Cc2ccccc2C1=O | -3% | -18% | 56%[activator]
O=C(NS(=O)(=O)N1CCCC1)C1=C(N2CCCC2)COC1=O | 4% | 1% | -17%
Cc1ccc(NC(=O)COC(=O)CCC(=O)c2cccs2)c(Br)c1 | -4% | -5% | -7%
NS(=O)(=O)c1cccc(NC(=O)COC(=O)c2ccccc2C(=O)c2ccccc2)c1 | -17% | 3% | -4%
COc1ccc(NC(=O)CCCN2C(=O)CN(C)C2=O)c(OC)c1 | -11% | -18% | -8%
CSCCC(C(=O)OC1CCOC1=O)N1C(=O)c2ccccc2C1=O (stereo not drawn) | 4% | 3% | -12%
CN(CC(=O)Nc1ccccc1C(=O)Nc1ccccc1)C1CCCCC1 | -1% | 18% | -15%
CC1(C)C[C@@H]1C(=O)N/C(=C\CCCCSC[C@H](N)C(=O)O)C(=O)O | 2% | -7%[18.4 µM] | -15%&-5%
COc1ccc(CC(=O)NCc2ccc3c(c2)cc(C)n3C)cc1 | -1% | -20% | -14%
CCOc1ncccc1C(=O)OCC(=O)Nc1ccc2c(c1)OCO2 | -3% | -2% | -12%
CCN1CCN(CCCNC(=O)c2ccc(/C=C3/Sc4ccccc4N(Cc4ccccc4F)C3=O)cc2)CC1 | -12% | 1% | -19%
Cc1ccc(CC(=O)N(Cc2ccccc2)c2ccccn2)cc1 | -1% | 11% | 9%
Cc1cc(=O)[nH]c(SCC(=O)Nc2ccc(N3CCCCC3)cc2)n1 | -4% | -10% | -20%
CN1CCN(C(=O)c2ccccc2NS(=O)(=O)c2ccc(F)cc2)CC1 | 8% | -2% | -20%
CC(C)(C)OC(=O)C[C@@H]1C/C=C\C[C@@H](CC(=O)N(CCO)Cc2ccccc2)C(=O)N[C@H](C(C)(C)C)COC1=O | 1% | -8% | 4%
N#CCc1ccccc1C(=O)OCC(=O)N(Cc1ccccc1)Cc1ccccc1 | -2% | -6% | -18%

# Additional results:
mol | SARS PLP yeast | RE007 growth inh | StopGo reporter
COc1ccc(CN2C(=O)C(C)Nc3ncnc(N4CCN(c5ccccn5)CC4)c32)cc1 (stereo not drawn) | -14% | -25% | 15%
O=C1CN=C(c2ccccc2)c2cc(Cl)ccc2N1 | 1% | -6% | -21%
OCC[C@H]1C[C@H](O)[C@@H](O)[C@@]2(Cc3ccccc3O2)O1 | 6% | 5% | -12%
COc1ccc(Br)cc1S(=O)(=O)n1ccnc1 | -2% | -3% | -3%
COc1ccc(Nc2cc(C(=O)N3CCc4ccccc4C3)c3ccccc3n2)c(OC)c1 | 9% | -3% | -13%
c1ccc(CNc2c(-c3cccc(SC4CCCCC4)c3)nc3ccccn23)cc1 | -3% | -8% | 22µM*
COCCN(Cc1nc2ccccc2c(=O)[nH]1)C(=O)c1cccc(S(=O)(=O)N2CCCC2)c1 | -1% | -4% | -12%
CC(C)(C)OC(=O)C[C@H]1C/C=C\C[C@@H](CC(=O)N(CCO)Cc2ccccc2)C(=O)NC[C@H](c2ccccc2)OC1=O | 1% | 1% | 0%
CC(C(=O)N1CCCCC1)N(C)CC(=O)Nc1cccc(F)c1 (stereo not drawn) | -17% | 2% | -12%
CCOC(=O)C1=C(CC)Nc2ccccc2N/C1=N\S(=O)(=O)c1ccccc1F | 10% | 8% | -11%
CC(=O)CSc1nnc2c3ccccc3nc(C(C)(C)C)n12 | -5% | -13% | -18%
Cc1ccc(S(=O)(=O)N2CCC[C@H]2C(=O)OCC(=O)Nc2ccc3c(c2)OCO3)cc1 | 1% | 10% | -19%
CCC[C@@H](CN1CCC[C@H]1CN1C(N)=NC[C@H]1CC(C)C)N1C[C@@H](Cc2ccccc2)N(CCCC2CCCC2)C1=N | 2% | 32% | -14%
Cc1nonc1NC(=O)CSc1nc2c(C)cccc2cc1C#N | -7% | -7% | 49%[activator]
Cc1ccc(S(=O)(=O)N2CCOCC2)cc1C(=O)OC(C)C(=O)NC1CCCC1 (stereo not drawn) | 0% | 3% | -21%
O=C(CCc1ccc(S(=O)(=O)N2CCOCC2)cc1)OCC(=O)c1ccccc1F | -1% | 10% | -10%
COc1ccc(CNC(=O)CCCn2nc([N+](=O)[O-])cc2C)cc1 | 0% | -10% | -17%
COc1ccc(S(=O)(=O)N2CCCCC2)cc1NC(=O)C1CCCC1 | -1% | 3% | 14%
CN(C)C(=O)CSc1ccc(S(=O)(=O)N2CCOCC2)cn1 | 3% | -5% | -15%
CC(=O)c1ccc(S(=O)(=O)N2CCn3cccc3C2C)cc1 (stereo not drawn) | -2% | -1% | -9%

# In a second layout: entries from further up.
N#CCc1ccccc1C(=O)OCC(=O)N(Cc1ccccc1)Cc1ccccc1
  SARS PLP yeast: -2%	RE007 growth inh: -6%	StopGo reporter: -18%
COc1ccc(CN2C(=O)C(C)Nc3ncnc(N4CCN(c5ccccn5)CC4)c32)cc1 (stereo not drawn)
  SARS PLP yeast: -14%	RE007 growth inh: -25%	StopGo reporter: 15%

# (continued)
mol | SARS PLP yeast | RE007 growth inh | StopGo reporter
CCOC(=O)[C@H]1[C@H]2COc3ccc(Br)cc3[C@@H]2N2C(=O)c3ccc(F)cc3NC(=O)[C@@]12C | -5% | 8% | -2%
CCOC(=O)C1=CN(Cc2ccco2)S(=O)(=O)N(CC)C1c1cccc(OC)c1 (stereo not drawn) | 1% | 6% | -3%
O=C1C=C(c2ccc3c(c2)OCCO3)C[C@@H](c2ccc(F)cc2)C1 | 2% | 5% | 39%[activator]
CCN1CCN(c2ccc(Nc3ccnc4ccccc34)cc2)CC1 | 2% | 2% | 0%
O=C(CCN1C(=O)C2CC=CCC2C1=O)OCC(=O)c1ccc(F)cc1 (stereo not drawn) | -5% | 10% | -2%
COc1ccc(NS(=O)(=O)c2cccc(C(=O)O)c2)cc1S(=O)(=O)N1CCCCC1 | -2% | 5% | -7%
O=C(C[C@@H]1C/C=C\C[C@@H](Cc2ccc(F)cc2)C(=O)OC[C@@H](Cc2c[nH]c3ccccc23)NC1=O)NCCO | -1% | 7% | -21%
CCN1C(=O)[C@@H]2[C@@H](c3ccc(-c4ccc(Cl)c(Cl)c4)cc3)N3CCC[C@@]3(C(=O)OC)[C@@H]2C1=O | 4% | 5% | -15%
Cc1nc(-c2cccc(NC(=O)c3cccc(S(=O)(=O)N4CCCC4)c3)c2)cs1 | 1% | -12% | ?
CCc1ccccc1NC(=O)CN1CCN(C(=O)CNC(=O)c2ccccc2F)CC1 | 4% | 0% | -19%
O=[N+]([O-])c1cccc(/C=N/Nc2ccccn2)c1 | -1% | 4% | 31%[activator]
C[C@H](CO)N1C[C@H](C)[C@@H](CN(C)S(=O)(=O)c2cccs2)Oc2ccc(NC(=O)c3ccncc3)cc2C1=O | 7% | 0% | -16%
O=C(NCCc1ccc(F)cc1)c1ccc(Cl)c(S(=O)(=O)N2CCOCC2)c1 | -6% | 3% | ?
COc1cc(CC(=O)OCC(=O)Nc2ccccc2C#N)cc(OC)c1OC | 3% | 3% | -29%
CCCCCCSc1ccc([C@@H]2[C@H]3C(=O)N(C)C(=O)[C@H]3[C@]3(C(=O)OC)CCCCN23)cc1 | 1% | -7% | -29%
C=CCC[C@@H](Cc1ccc(F)cc1)C(=O)OCCNC(=O)[C@H](CC=C)CC(=O)NCCO | -1% | 10% | -18%
CC(Sc1nnnn1C)C(=O)Nc1nc(-c2ccc(F)c(F)c2)cs1 (stereo not drawn) | 1% | 4% | 0%
COc1ccc(-c2nc(C3CCCCC3)c3cc(OC)ccc3n2)cc1 | 17% | -7% | -19%
CCOC(=O)[C@H]1[C@H]2COc3ccc(C)cc3[C@@H]2N2C(=O)c3ccc(Cl)cc3NC(=O)[C@@]12C | 5% | 2% | -27%
O=C(COc1ccc(F)cc1Cl)NC1CCCCCC1 | 3%[6.58 µM] | -1% | 4%

# Continued.
mol | SARS PLP yeast | RE007 growth inh | StopGo reporter
CC(C)(C)OC(=O)C[C@@H]1C/C=C\C[C@@H](CC(=O)N(CCO)Cc2ccccc2)C(=O)N[C@@H](c2ccccc2)COC1=O | -3% | -1% | -21%
CCOC(=O)[C@H]1[C@H]2COc3ccc(Br)cc3[C@@H]2N2C(=O)CN(CC3CCCO3)C(=O)[C@@]12C (stereo partly drawn) | ? | -7% | -10%
CC(=O)Nc1ccc(S(=O)(=O)NCCC(=O)OC(C)C(=O)NC2(C#N)CCCCC2)cc1 (stereo not drawn) | -2% | -6% | 1%
CN(Cc1ccccc1)C(=O)c1nc[nH]c1C(=O)N(C)Cc1ccccc1 | -4% | 7% | -10%
C/C=C/C1=CC(=O)C[C@H](c2ccc(F)cc2)C1 | -10% | 7% | -22%
CCC(=O)NNc1nc2c(F)cc(F)cc2s1 | 0% | 5% | -9%
CC(C)(C)OC(=O)N1CCC(C(=O)Nc2ccc(C(=O)N3CCOCC3)cc2)CC1 | -1% | 5% | 2%
N#CC(c1ccccc1)c1cnccn1 (stereo not drawn) | 0% | -7% | -19%

# Screens (PubChem)

# This is a subset; count on the stated rates, not on these rows.
